EPAC1 ag val: validation of human EPAC1 agonists; O95398; EPAC1 Rap1b BODIPY-GDP exchange, fluorescence; Potency, µM, for inactives: max response, positive = active, hits mostly activators; 1% of 16,000 active; active = well fitted activation curve with a large enough effect; inconclusive = small, poorly fitted or top-dose-only effect; inactive = no such curve, though single readings can be large or run the other way;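 also: nearly all actives have a fitted effect of over 70% in size; series mostly up to about 76 or 150 µM; scaled to a cAMP control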
Target sequence (O95398 whole entry, looked up): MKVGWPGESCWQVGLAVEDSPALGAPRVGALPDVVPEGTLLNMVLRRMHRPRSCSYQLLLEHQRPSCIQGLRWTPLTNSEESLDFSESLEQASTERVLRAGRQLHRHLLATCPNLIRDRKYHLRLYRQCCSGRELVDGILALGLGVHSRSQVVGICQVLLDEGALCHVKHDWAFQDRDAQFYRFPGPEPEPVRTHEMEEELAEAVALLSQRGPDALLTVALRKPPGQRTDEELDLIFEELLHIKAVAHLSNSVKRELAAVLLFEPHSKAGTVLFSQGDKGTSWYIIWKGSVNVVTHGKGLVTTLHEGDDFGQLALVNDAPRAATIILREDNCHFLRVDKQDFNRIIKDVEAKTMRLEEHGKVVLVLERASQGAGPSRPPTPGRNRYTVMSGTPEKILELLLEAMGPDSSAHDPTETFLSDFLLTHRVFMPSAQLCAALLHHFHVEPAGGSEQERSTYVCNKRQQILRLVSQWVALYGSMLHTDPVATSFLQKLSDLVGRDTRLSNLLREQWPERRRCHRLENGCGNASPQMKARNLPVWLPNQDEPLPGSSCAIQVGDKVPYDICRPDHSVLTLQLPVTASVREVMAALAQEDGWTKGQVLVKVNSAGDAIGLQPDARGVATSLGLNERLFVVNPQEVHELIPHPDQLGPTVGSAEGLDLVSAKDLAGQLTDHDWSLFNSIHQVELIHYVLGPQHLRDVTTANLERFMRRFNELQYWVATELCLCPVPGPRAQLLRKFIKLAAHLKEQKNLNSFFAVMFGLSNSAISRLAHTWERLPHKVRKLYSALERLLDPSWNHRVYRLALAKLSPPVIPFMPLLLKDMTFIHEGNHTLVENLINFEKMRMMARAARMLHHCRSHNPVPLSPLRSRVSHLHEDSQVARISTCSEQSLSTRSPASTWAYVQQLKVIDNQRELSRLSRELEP
* marks the source's active call; other numbers are inactive results; u = inconclusive; & = joins results of further samples; [ ] = dose if it differs, or a comment. % is scaled to controls: 0 for no effect and ±100 for the full control effect; potency is read from the fitted curve at half-maximal effect. Only part of the results is shown. The share of hits here may be higher or lower than overall.

SMILES | EPAC1 ag val
COc1c(O)cc2c(=O)oc3c(OC)c(O)cc4c(=O)oc1c2c34 | -22%
OC(c1cccnc1)c1ccc2c(c1)CN(Cc1ccc(-c3ccccc3Cl)o1)CCO2 (stereo unspecified) | -2%
COc1ccc(C(C)=O)c(O)c1 | 19%
Clc1ccc2c(c1)N=C(N1CCNCC1)c1ccccc1N2 | -8%&-13%&-17%
COc1ccc2[nH]cc(CCNc3nc(-c4cccc(NS(C)(=O)=O)c4)nc4ccccc34)c2c1 | u
Cc1cc(-c2ccnc(-n3ncc(C(=O)N(C)CC(O)c4ccccc4)c3C)n2)c(C)s1 (stereo unspecified) | -7%
CN(C)c1ncc2nc(-c3ccc(Cl)cc3)c(=O)n(Cc3cccs3)c2n1 | -44%[inhibitor]
COc1ccccc1-c1nc(N2CCOCC2)c2ccccc2n1 | 27%
CC(C)=CCc1c(O)cc(C)oc1=O | -12%
C=CC[N@@+]12CC[C@@]34c5ccccc5N5/C=C6/[C@H]7C[C@H]8[C@@]9(CC[N@@+]8(CC=C)C/C7=C/CO)c7ccccc7N(/C=C(/[C@@H](C[C@@H]31)/C(=C\CO)C2)[C@H]54)[C@@H]69 | 25%
COc1ccc(C(=O)C[n+]2cc(Br)cc(Br)c2)cc1 | 30%
CCCCN1CC[C@H]2C=CC[C@@H](C(=O)Nc3ccc(Cl)cc3Cl)[C@H]2C1=O | -50%[inhibitor]
COCC(=O)N1CCC[C@@]2(CCN(c3ccccc3)C2)C1 | -31%[inhibitor]
COC(=O)N1CCC[C@@]2(CCN(c3ccccc3)C2)C1 | -1%
CCO/C([O-])=N/c1c[n+](N2CCOCC2)no1 | 15%&-21%&5%
CC(NNC(=O)c1ccccc1)c1ccccc1 (stereo unspecified) | -7%
O=C(O)COc1cccc(-c2ocnc2-c2nc(-c3ccccc3)c(-c3ccccc3)o2)c1 | 7%
COc1cc2c(cc1OC)CC(=O)N(CCCN(C)C[C@H]1Cc3cc(OC)c(OC)cc31)CC2 | 1%
O=C(O)CCC(=O)OC[C@@H](NC(=O)C(Cl)Cl)C(O)c1ccc([N+](=O)[O-])cc1 (stereo partly specified) | u
C=C1CCC2C(CC2(C)C)C(=O)CCC1O (stereo unspecified) | -20%
NC(=O)CCCCC1CCSS1 (stereo unspecified) | -19%
COCCN(C)C(=O)c1cnn(-c2nccc(-c3cc(C)sc3C)n2)c1C | -3%
Cc1cc(C)nc(NS(=O)(=O)c2ccc(N)cc2)n1 | -10%&-16%
CN(C)c1cc(-c2cccc(NS(C)(=O)=O)c2)ncn1 | -42%[inhibitor]
N#CC[C@H](Cc1ccccc1)N1CC[C@@H](NC(=O)OCc2ccccc2)CCC1=O | 3%
Continuation:
SMILES | EPAC1 ag val
Cc1cnc(CNc2nc(-c3cccc(NS(C)(=O)=O)c3)nc3ccccc23)cn1 | -25%
COC(=O)N1CCC2(CC1)CN(C(=O)Nc1ccccc1)C2 | -47%[inhibitor]
CC(=O)NCCNc1ncncc1-c1ccccc1C | 10%
COc1ccc2[nH]cc(CCO)c2c1 | -9%
CCC(O)CNC(=O)c1cnn(-c2ncc3c(n2)-c2ccc(OC)cc2CC3)c1C1CC1 (stereo unspecified) | 1%
COc1cccc(Nc2ncc3nc(CCc4ccccc4)c(=O)n(Cc4cccs4)c3n2)c1 | -20%
c1ccc2c(c1)CCC[C@H]2Nc1nc2ccccc2[nH]1 | 1%
CNCC(=O)NCC(=O)N[C@@H](Cc1ccccc1)C(=O)N[C@@H](CC(C)C)C(=O)O | -8%
C[C@]1(Cn2ccnn2)[C@H](C(=O)O)N2C(=O)C[C@H]2S1(=O)=O | -14%
CN[C@@H]1[C@@H](O)[C@@H](O[C@@H]2[C@H](O)[C@H](O[C@H]3OC(CN)=CC[C@H]3N)[C@@H](N)C[C@H]2N)OCC1(C)O (stereo partly specified) | -10%
CN(C)c1ncc2nc(-c3ccc(Cl)cc3)c(=O)n(Cc3ccc(F)cc3)c2n1 | u
CC(=O)NC(C(=O)O)C(C)(C)SN=O (stereo unspecified) | 20%
CC(=O)c1ccc[nH]1 | u
COc1ccc2c(c1)CCc1cnc(-n3ncc(C(=O)NC4CCOC4)c3C3CC3)nc1-2 (stereo unspecified) | -11%
O=C(O)CCCC[C@@H]1CCSS1 | 5%
O=C(Nc1cccc(F)c1)N1CCCC2(CCN(C(=O)c3ccco3)CC2)C1 | -35%[inhibitor]
Cn1c(=O)c(-c2cccs2)nc2cncnc21 | -9%
COCCn1c(=O)c(-c2ccc(Cl)cc2)nc2cnc(N(C)C)nc21 | -24%
O=C1Nc2ccc(Cl)cc2[C@@](C#CC2CC2)(C(F)(F)F)O1 | -39%[inhibitor]
Cc1ccc2c(c1)C(N1CCN(C)CC1)=Nc1cccnc1N2 | 16%
Cc1ccccc1-n1cc(CNC(=O)CN2Cc3ccccc3OC(C)C2)cn1 (stereo unspecified) | -4%
Cc1ccc(-c2ccnc(-n3ncc(C(=O)N(C)Cc4cccc5ncccc45)c3C3CC3)n2)o1 | -1%
C[C@@H]1CC[C@@]2(OC1)O[C@H]1C[C@H]3[C@@H]4CC[C@H]5C[C@@H](O)CC[C@]5(C)[C@H]4CC(=O)[C@]3(C)[C@H]1[C@@H]2C | -15%
O=C(c1csnn1)N1CCC2(CCCN(C(c3ccccc3)c3ccccc3)C2)CC1 | u
OC(C[n+]1c(Cl)ccc2ccccc21)c1ccccc1 (stereo unspecified) | 23%
Later entries
SMILES | EPAC1 ag val
CN1CCN(c2ncc3nc(-c4ccc(F)cc4)c(=O)n(C4CC4)c3n2)CC1 | -41%[inhibitor]
NS(=O)(=O)c1cc2c(cc1C(F)(F)F)NCNS2(=O)=O | -18%&29%
O=C1[C@H](Cc2ccccc2)NCCCC[C@@H](c2ccc(Cl)cc2)N1Cc1ccc(Cl)cc1 | 24%
Cc1nc2ccccc2nc1CN1CCOc2ccc(C(C)(O)COc3ccccc3)cc2C1 (stereo unspecified) | 22%
COc1cc(C(=O)NCc2ccc(OCCN(C)C)cc2)cc(OC)c1OC | u
Cc1cc(O)c(C(C)C)cc1Cl | -33%[inhibitor]
O[C@@H]([C@H](O)[C@H](O)CBr)[C@H](O)CBr | u
CC1CC[C@@]2(C(=O)O)CC[C@]3(C)C(=CCC4[C@@]5(C)CCC(O)C(C)(C)C5CC[C@@]43C)C2C1C (stereo partly specified) | -121%[inhibitor]
CC(=O)Oc1cccc2c1C(=O)c1c(OC(C)=O)cc(C(=O)O)cc1C2=O | -9%
COC(=O)C[C@H]1c2cc(F)cc(F)c2S(=O)(=O)N1C1CCN(Cc2ccccc2)CC1 | 29%
CN(C)c1ncc2nc(-c3ccc(Cl)cc3)c(=O)n(C)c2n1 | -30%[inhibitor]
CCOC(=O)C[C@H]1c2ccc(C(F)(F)F)cc2S(=O)(=O)N1Cc1ccccc1 | -16%
COC(=O)c1cc(CNC(=O)c2ccc(N(C)C)cc2)cc(NC(=O)c2ccccc2Cl)c1 | -1%
CC(=O)N1CCC2(CCCN(c3cccc(-c4ccccc4)c3)C2)CC1 | 100µM*
C[C@@H](CCc1ccc(O)cc1)NCCc1ccc(O)c(O)c1 | -19%
CC(=O)Nc1ccc(SCCN2CC[C@@H](O)CCC2=O)cc1 | 18%
CSc1nnc(CCNC(=O)/C=C/c2cccc(F)c2)n1-c1ccc(F)cc1 | -11%
CC(=O)c1ccc(-c2ccc3c4c(ccc3c2)OC(CNC(=O)C(C)N2CCOCC2)C4)s1 (stereo unspecified) | -10%
Cc1nc(C)c(CC(=O)N2CCOc3ccc(CN4CCOCC4)cc3C2)s1 | 0%
NCCNCCN | 21%
O=C(O)c1cc(O)c2c(c1)C(=O)c1cccc(O)c1C2=O | -13%
COc1ncc2ncc(=O)n(Cc3ccc(F)cc3)c2n1 | -68%[inhibitor]
CC(=O)NCCNc1cc(-c2ccccc2C)ncn1 | -23%
C=C1C(=O)O[C@@H]2[C@H]3O[C@]3(C)CC/C=C(\C)CC[C@@H]12 | -10%
CCN(CC)CCCC(C)Nc1cc(/C=C/c2ccccc2Cl)nc2cc(Cl)ccc12 (stereo unspecified) | 19%

Entries shown so far containing a furan ring, fused or not (3):
SMILES | EPAC1 ag val
OC(c1cccnc1)c1ccc2c(c1)CN(Cc1ccc(-c3ccccc3Cl)o1)CCO2 (stereo unspecified) | -2%
O=C(Nc1cccc(F)c1)N1CCCC2(CCN(C(=O)c3ccco3)CC2)C1 | -35%[inhibitor]
Cc1ccc(-c2ccnc(-n3ncc(C(=O)N(C)Cc4cccc5ncccc45)c3C3CC3)n2)o1 | -1%

Next section
SMILES | EPAC1 ag val
Cn1cnnc1Sc1ccc(CN2CCOc3ccc(C4=Cc5ccccc5C4)cc3C2)o1 | -12%
COc1ccc(Oc2ncc3nc(-c4cccc(C#N)c4)c(=O)n(CCC#N)c3n2)cc1 | -30%
CN(C)Cc1ccccc1-c1cc(Nc2ccccc2)ncn1 | 16%
CC(O)(COc1ccccc1)c1ccc2c(c1)CN(Cc1ccccn1)CCO2 (stereo unspecified) | 11%
Nc1ccc(S(=O)(=O)c2ccc(N)cc2)cc1 | -40%&30%[inhibitor]
FC(F)(F)c1ccccc1-c1nccc(-n2ccnc2)n1 | 8%
c1ccc(C(NCCNC(c2ccccc2)c2ccccc2)c2ccccc2)cc1 | 2%
O=C(NCC1(N2CCOCC2)CCCC1)c1cnn(-c2nccc(-c3cccs3)n2)c1C1CC1 | -19%
COc1cc(O)ccc1C(C)=O | -7%
Clc1cccc(C(c2ccc3nc[nH]c3c2)n2ccnc2)c1 (stereo unspecified) | -12%
c1ccc(CN2CCC3(CCCc4ccccc43)CC2)cc1 | 5%
O=C(O)Cc1nn(Cc2ccc(Br)cc2F)c(=O)c2ccccc12 | -7%
c1cnc2c(c1)ccc1cccnc12 | -5%
C[C@]12CCC3c4ccc(O)cc4CCC3C1CC(O)C2O (stereo partly specified) | 3%
N#Cc1cccc(CN2CCC(=O)N([C@H](CO)c3ccccc3)CC2)c1 | u
COc1cccc(Nc2ncc3nc(-c4ccc(F)cc4)c(=O)n(C[C@H]4CCCO4)c3n2)c1 | u
O=[N+]([O-])c1ccc(C=C2c3ccccc3-c3ccccc32)cc1 | 20%
CCN1CCCC1CNCc1cc2c(OC)c(OC)c(OC)cc2nc1N(C)C (stereo unspecified) | -6%
Cc1nc2cnc(N(C)C)nc2n(-c2ccccc2)c1=O | -15%
CC(CCc1ccc(O)cc1)NCC(O)c1ccc(O)cc1 (stereo unspecified) | -25%
CC(=O)Nc1cc(C(=O)N2CCN(c3ccccc3)CC2C)cc2ncn(CCc3ccccn3)c12 (stereo unspecified) | -11%
Cc1noc(C)c1-c1cc(N(C)C)ncn1 | u
COC(=O)C1CCCCN1Cc1ccc2c(c1)CN(C(=O)c1ccc(C)s1)CCO2 (stereo unspecified) | 11%
CCOCC(O)COc1ccc(NC(=O)CC[S+](C)C)cc1 (stereo unspecified) | 0%
N#Cc1cccc(NC(=O)N2CC[C@@]3(CCCN(C(=O)c4ccncc4)C3)C2)c1 | -48%[inhibitor]

Next part, overlapping the part above by 7 compounds.
SMILES | EPAC1 ag val
Cc1nc2cnc(N(C)C)nc2n(-c2ccccc2)c1=O | -15%
CC(CCc1ccc(O)cc1)NCC(O)c1ccc(O)cc1 (stereo unspecified) | -25%
CC(=O)Nc1cc(C(=O)N2CCN(c3ccccc3)CC2C)cc2ncn(CCc3ccccn3)c12 (stereo unspecified) | -11%
Cc1noc(C)c1-c1cc(N(C)C)ncn1 | u
COC(=O)C1CCCCN1Cc1ccc2c(c1)CN(C(=O)c1ccc(C)s1)CCO2 (stereo unspecified) | 11%
CCOCC(O)COc1ccc(NC(=O)CC[S+](C)C)cc1 (stereo unspecified) | 0%
N#Cc1cccc(NC(=O)N2CC[C@@]3(CCCN(C(=O)c4ccncc4)C3)C2)c1 | -48%[inhibitor]
COc1cccc(Cn2c(=O)c(-c3cn(C)c4ccccc34)nc3cncnc32)c1 | -27%
Cc1noc(C)c1C(=O)N1CCC2(CCCN(C(=O)Nc3ccccc3)C2)CC1 | 4%
CC(C)C(NS(C)(=O)=O)c1nnc2n1CCN(Cc1ccc(Cl)cc1)CC2 (stereo unspecified) | -21%
C=C1C(=O)OC2C1CC/C(C)=C/CCC1(C)OC21 (stereo unspecified) | u
Cc1cc(-c2ccnc(-n3ncc(C(=O)NCc4cccnc4)c3C3CC3)n2)c(C)s1 | -5%
O=C1C(O)=C(O)C(=O)C(O)=C1O | 18%
Cc1ccccc1-c1cncnc1Nc1ccc(F)cc1 | -8%
Clc1ccccc1-c1ccc2ncnc(NC3CCNCC3)c2c1 | -55%[inhibitor]
COc1ccc(-n2c(=O)c(C)nc3cnc(Oc4cccc(Cl)c4)nc32)cc1 | 27%
COCCn1c(=O)c(-c2ccc(OC)cc2)nc2cnc(Nc3cccc(OC)c3)nc21 | 112µM*
C[C@H]1O[C@@H](O[C@H]2[C@@H](O)C[C@H](O[C@H]3[C@@H](O)C[C@H](O[C@H]4CC[C@@]5(C)[C@H](CC[C@@H]6[C@@H]5C[C@@H](O)[C@]5(C)[C@@H](C7=CC(=O)OC7)CC[C@]65O)C4)O[C@@H]3C)O[C@@H]2C)C[C@H](O)[C@@H]1O | 1%&-27%
Clc1ccccc1-c1nc(-n2ccnc2)c2ccccc2n1 | u
CC1CC(O)CC(C)(C)C1 (stereo unspecified) | 7%
Cc1cc(O)c(C)c2c1CC[C@H]1[C@H](C)C(=O)O[C@H]21 | -23%
CCCCCCCCCCCCCCCCCCN(CCCCCCCCCCCCCCCCCC)c1ccc(/C=C/c2ccc(C=O)cc2)cc1 | 19%
CCOC(=O)O[C@]1(C(=O)OCCl)CC[C@@H]2[C@H]3CCC4=CC(=O)C=C[C@]4(C)[C@@H]3[C@@H](O)C[C@@]21C | -23%
Cn1cccc1C(=O)N1CCC2(CC1)CN(Cc1cc(C(F)(F)F)cc(C(F)(F)F)c1)C2 | -72%[inhibitor]
Cc1ccc2c(c1)CN(CCNC(=O)c1cc3ccccc3oc1=O)CC(C)O2 (stereo unspecified) | -22%

2 entries from above, as a markdown table.
| molecule | EPAC1 ag val |
| --- | --- |
| Cc1noc(C)c1C(=O)N1CCC2(CCCN(C(=O)Nc3ccccc3)C2)CC1 | 4% |
| CC(C)C(NS(C)(=O)=O)c1nnc2n1CCN(Cc1ccc(Cl)cc1)CC2 (stereo unspecified) | -21% |

High-throughput results from PubChem.
